Vaccinia mCherry = vaccinia inhibition (mCherry reporter); Vaccinia virus mCherry reporter infection, fluorescence; about a quarter of the inactives have no number; Potency, µM (highest dose often 36.5 µM), for inactives: at the highest dose activity change, negative = inhibition, hits mostly inhibitors; 310,000 tested, 0.63% active; AID 720579; active = well fitted inhibition curve with a large enough effect; inconclusive = small, poorly fitted or top-dose-only effect; inactive = no such curve, though single readings can be large or run the other way; tested in A549 cells; note: nearly all actives have a fitted effect of over 35% in size; inactives centre near -10
Vaccinia Venus = vaccinia inhibition (Venus reporter); AID 720580; Vaccinia virus Venus reporter expression, fluorescence; Potency, µM (highest dose often 36.5 µM), inactives show top-dose activity change, negative = inhibition, actives largely listed as inhibitors; 330,000 tested, 0.46% active; active means well fitted inhibition curve with a large enough effect; inconclusive means small, poorly fitted or top-dose-only effect; inactive means no such curve, though single readings can be large or run the other way; tested in A549 cells; note: nearly all actives have a fitted effect of over 30% in size; inactives centre near -10
The depositor's hits bear a star; i = inactive; u = inconclusive; x = no result given; [ ] = dose if it differs, or a comment. % is set by controls: 0 for no effect and ±100 for the full control effect; potency is the fitted concentration of half-maximal effect.

SMILES	Vaccinia mCherry	Vaccinia Venus
Cc1cccc(-n2c(C)nc3ccsc3c2=O)c1	i	-20%
CCOc1ccc(C(=O)OCc2cc(=O)n3nc(C4CC4)sc3n2)cc1	-11%	-10%
Oc1ccc(-c2cnc(-c3ccc(O)cc3)nc2)cc1	-10%	-10%
CC[C@@]12C(=O)N(c3cccc(F)c3)C(=O)N1[C@H](c1cccc(C)c1)[C@@H]1C(=O)N(Cc3ccccc3)C(=O)[C@@H]12	-29%	-21%
O=c1c2ccccc2[nH]c(=S)n1-c1ccc2c(c1)OCO2	-15%	-3%
Cc1noc(/C=C/N(C)C)c1S(=O)(=O)N1CCCC(C(=O)NCCC2=CCCCC2)C1 (configuration not stated)	-22%	u
CCc1ccc(N=CC2=C(O)CC(c3ccco3)CC2=O)cc1 (configuration not stated)	x	-21%
Cn1c(=O)c(=O)n(C)c2cc(N3CCOCC3)c(NS(=O)(=O)c3ccc(F)c(Cl)c3)cc21	11µM*	u
CN(c1ccc(Cl)cc1)c1cc2c(c3c1ccn3C)C1CCC2O1 (configuration not stated)	3%	3%
O=P1(O)C=C(c2ccccc2)NC(c2ccccc2)=C1	-12%	-7%
CCN(CC)c1ccc(C(=O)N2CCC(c3c[nH]c4ccccc34)(c3c[nH]c4ccccc34)CC2)cc1	-17%	-6%
O=C(O)CCCC(=O)Nc1cccc(C(F)(F)F)c1	i	-6%
Cc1ccc(C)c(N2CCN(C(c3ccc(N(C)C)cc3)c3nnnn3C(C)(C)C)CC2)c1 (configuration not stated)	-14%	-10%
COC(=O)N/N=C/c1ccc(OC(=O)/C=C/c2ccco2)cc1	i	-10%
Cc1cc(NC(CC(C)C)C(=O)O)nc(Cc2ccccc2)n1 (configuration not stated)	x	2%
Cc1ccc(C)c(CSc2nc3ccncc3n2CC(=O)Nc2ccc(N(C)C)cc2)c1	-10%	-6%
O=C1c2ccncc2C(=O)N1CO	x	-10%
Cc1ccc(-c2noc(CNCCCN(C)C)n2)cc1	-13%	-8%
CC1(C(=O)NS(=O)(=O)c2ccc(C#N)cc2)CCN1C(=O)Cc1cccc2ccccc12 (configuration not stated)	-11%	-7%
CC[C@]12C(=O)N(C)C[C@H]([C@@H]3C(=O)N(Cc4ccccc4)C(=O)[C@@H]31)N2C(=O)c1ccc(C(C)(C)C)cc1	u	-13%
CSc1nc2ccccc2n1CC(=O)Nc1ccccc1	x	-17%
O=C(CCC(=O)N1CCSc2ccccc21)NCc1cccc(Cl)c1	-15%	-7%
CCOC(=O)CSc1nc2ccccc2n1C(=O)OCC	x	-9%
N/C(=N\OC(=O)CCc1ccccc1)c1ccccc1Cl	i	-6%
CCOP(=O)(OCC)C(Nc1cccc(C)c1)c1ccc(F)cc1 (configuration not stated)	u	-13%
CCc1ccc2oc(-c3cc(NC(=O)c4cc([N+](=O)[O-])ccc4N4CCOCC4)ccc3Cl)nc2c1	10%	-6%
CN(C)CCN(C)C1CN(Cc2ccc(F)cc2)S(=O)(=O)C1 (configuration not stated)	i	-2%
CCNC(=O)C[C@@H]1C=C[C@@H](NS(=O)(=O)c2ccc(F)cc2)[C@@H](CO)O1	-4%	13%
S=c1[nH]nc(-c2ccccn2)n1/N=C/c1ccco1	i	-14%
COc1ccc(N2CCN(C(=O)COC(=O)Cc3c(F)cccc3Cl)CC2)cc1	-18%	-7%
c1ccc(-c2onc3c2CCCC3)cc1	-13%	-3%
Cc1onc(-c2ccc(Cl)cc2)c1-c1ccnn1S(=O)(=O)c1ccc(Cl)cc1	u	-1%[7.34 µM]
CC(CO)NS(=O)(=O)c1cc(Cl)ccc1F (configuration not stated)	i	-1%
Cc1ccc(-c2csc3ncnc(N4CCN(C(=O)c5ccco5)CC4)c23)cc1	-3%	-15%
CCCC(c1nnnn1CS(=O)(=O)c1ccc(C)cc1)N1CCN(CC)CC1 (configuration not stated)	i	-16%
CCC(=O)OCCn1c(=O)c2cc3c(=O)n(CCOC(=O)CC)c(=O)c3cc2c1=O	-14%	-1%
Cc1ccc(Oc2ccc(OCC(=O)NC3CCS(=O)(=O)C3)cc2)cc1 (configuration not stated)	i	-15%
CC(C)c1ccc(NC(=O)c2ccc(F)c(S(=O)(=O)N3CCCC3)c2)cc1	-13%	-19%
Cc1nc2nc(SCC(=O)c3cccc([N+](=O)[O-])c3)[nH]c2cc1Br	i	-11%
CCCc1cc(=O)oc2cc(C)cc(OC(C)C(=O)NCCCn3ccnc3)c12 (configuration not stated)	i	-13%
CCOC(=O)[C@]12CCCC=C1N(CCC1=CCCCC1)C(=O)[C@H](CC(=O)NCc1ccc(OC)c(OC)c1)C2	u	u
CC1(C)SC2c3ccccc3C(=O)N2[C@@H]1C(=O)NCc1ccco1 (some centres not stated)	x	-21%
N#CC(C(=O)NCc1ccco1)c1nc2ccccc2nc1N1CCOCC1 (configuration not stated)	-8%[1.46 µM]	-22%
NC(=O)C1Cc2ccccc2CN1S(=O)(=O)c1ccc(Cl)s1 (configuration not stated)	7%	-5%
O=C(Nc1nnc(C2CCCCC2)s1)C1CCN(C(=O)c2ccco2)CC1	-14%	u

The closing 2 entries of the section before are carried over, then new ones follow.
SMILES	Vaccinia mCherry	Vaccinia Venus
NC(=O)C1Cc2ccccc2CN1S(=O)(=O)c1ccc(Cl)s1 (configuration not stated)	7%	-5%
O=C(Nc1nnc(C2CCCCC2)s1)C1CCN(C(=O)c2ccco2)CC1	-14%	u
CCOC(=O)CNC(=O)Cn1cnc2c(cnn2-c2ccc(C)cc2)c1=O	-5%	-22%
Cc1ccc(S(=O)(=O)N2CCOCC2)cc1NC(=O)COC(=O)C1=COCCO1	-23%	-5%
COc1ccc(NC(=O)/C=C\C(=O)N(c2ccc(C(C)C)cc2)C(C(=O)NCc2ccco2)c2ccc(F)cc2)cc1 (configuration not stated)	u	u
CN1CCN(c2ccccc2NC(=O)c2cc(Br)ccc2Cl)CC1	-2%	-25%
CC(C)c1ccc(Nc2ncccc2C#N)cc1	-15%	-7%
C#CCOCCOCCOCCNc1nc(N2CCN(C(=O)[C@H]([C@@H](C)CC)n3cc([C@@H](N)CO)nn3)CC2)nc(N2CCN(C(=O)[C@H](CCCCN)n3cc([C@@H](N)CO)nn3)CC2)n1	-3%	-7%
CCc1cccc(NC(=O)CCC(=O)O)c1	-10%	-6%
O=C(COC(=O)C1=COCCO1)Nc1ccccc1OC(F)F	-2%	-8%
Cc1cc(C)n(-c2ccnc3cc(Cl)ccc23)n1	i	-4%
Cc1ccc(-c2csc(/C(C#N)=C/c3ccccc3Cl)n2)cc1	-6%	-3%
COCCNc1ccc(S(=O)(=O)N2CCCC2)cc1[N+](=O)[O-]	i	-3%
Cn1c(=O)c2cc(S(=O)(=O)NC(C(=O)NCc3ccccn3)c3ccccc3)ccc2n(C)c1=O (configuration not stated)	u	-20%
CC(C)(C)[C@@H]1C=C(C(=O)N2CCN(Cc3ccccc3)CC2)O[C@H](OCCCCO)C1	-10%	-21%
COc1ccc(C2(C(=O)NCC3Cc4cccc(-c5cccnc5)c4O3)CCCC2)cc1 (configuration not stated)	-19%	-12%
CCOC(=O)c1ccc(NC2=CC(c3ccc(OCC)cc3)N(c3ccc(C(=O)OCC)cc3)C2=O)cc1 (configuration not stated)	-1%	-2%
COc1ccc(C2C(C(C)=O)=C(C)Nc3ncnn32)cc1OC (configuration not stated)	-5%	1%
N#Cc1c(-c2c(Cl)cccc2Cl)noc1/C=C/Nc1ccc(C(=O)O)cc1	i	-17%
CN1CCN(C(=O)c2ccc(COc3ccc(Cl)cc3Cl)cc2)CC1	i	-24%
CCOC(=O)c1cc2sccc2n1CC(=O)OC	-13%	-13%
O=C(O)COc1ccccc1/C=N/NC(=O)c1cc2ccccc2cc1O	-7%	-21%
CN(CC(=O)Nc1cccc(F)c1)CC(=O)Nc1cccc([N+](=O)[O-])c1	-7%	-9%
Cn1c(=O)[nH]c(=O)c2c1nc(N1CCN(c3ccccc3)CC1)n2CCSc1ncccn1	i	1%
Cc1ccc2nc(SCc3cn4cccnc4n3)[nH]c2c1	-13%	1%
Cc1cccc(CN2C(=O)c3ccccc3Sc3ccc(C(=O)NCCCN4CCOCC4)cc32)c1	-23%	-14%
CCNC(=S)NNC(=O)c1nn(C)c(C)c1Cl	-4%	-11%
Cc1ccc(SCCC(=O)Nc2ccccc2Br)cc1	-2%	-8%
CC(C)N(C)c1ncnc2c1ncn2[C@H]1CN(Cc2ccccc2)C[C@@H](CO)O1	7%	1%
CCc1ccc(NC(=O)Cn2c(=O)n(CC3CCCO3)c(=O)c3cc(OC)c(OC)cc32)cc1 (configuration not stated)	-20%	-14%
COc1ccc(Br)cc1CNC(=O)Cn1nc(C)n2c(cc3cc(F)ccc32)c1=O	-2%	3%
C=Cc1ccc(Cn2c(C)c(CNCc3ccc(SC)cc3)c(C(=O)O)c2C)cc1	3%	10%
CC(=O)Nc1ccc(/C=N/NC(=O)c2cc3cc(C)ccc3nc2C)cc1	-11%	-5%
O=C(c1cccs1)N1CCC(N2CCN(c3ccccc3)CC2)CC1	-7%	0%
CCOCCn1c(=NC(=O)c2ccc3c(c2)OCCO3)sc2cc(OCC)ccc21	-12%[7.34 µM]	-7%[7.34 µM]
COc1cc(CCCN2C(=S)NC[C@@H]2CC2CCCCC2)cc(OC)c1OC	-16%	-16%
O=C(Nc1ccc(O)cc1)c1ccc2c(c1)C(=O)N(Cc1ccco1)C2=O	-16%	-8%
O=C(NNC(=S)Nc1cccc2ccccc12)c1cccc(Br)c1	-15%	-13%
O=S(=O)(NC1CC1)c1ccc(F)c(F)c1	-6%	-7%
CCCCN1C(=O)N(CCc2ccc(F)cc2)S(=O)(=O)c2cc(C(F)(F)F)ccc21	-2%	-3%
O=C1c2c(O)cc(O)cc2O[C@@]12c1c(cc(O)c3c1O[C@H](c1ccc(O)cc1)[C@@H](O)C3)O[C@@H]2c1ccc(O)cc1	i	-8%
CCOc1ccc(S(=O)(=O)NCCC(=O)Nc2nnc(C)s2)cc1	6%	-15%
CCOC(=O)CC1C(=O)NCCN1Cc1cccc(OC)c1 (configuration not stated)	-13%	-17%
COc1cccc(C(=O)Nc2ccc3[nH]c(=O)[nH]c3c2)c1OC	-10%	-6%
CC1(C)CC(=O)C=C(c2ccc(CO)cc2)C1=O	i	-4%
COc1ccc(OC)c(C(=O)CSc2nnc(-c3cccs3)o2)c1	-11%	-28%
Cc1ccc(S(=O)(=O)N2CCOCC2)cc1C(=O)NCc1ccco1	-6%	-1%

In the list so far, these have two or more sulfur atoms:
SMILES	Vaccinia mCherry	Vaccinia Venus
NC(=O)C1Cc2ccccc2CN1S(=O)(=O)c1ccc(Cl)s1 (configuration not stated)	7%	-5%
CCOc1ccc(S(=O)(=O)NCCC(=O)Nc2nnc(C)s2)cc1	6%	-15%
COc1ccc(OC)c(C(=O)CSc2nnc(-c3cccs3)o2)c1	-11%	-28%

Additional structures
SMILES	Vaccinia mCherry	Vaccinia Venus
CCCn1c(N)c(C(=O)CSc2nnc3ccccn23)c(=O)[nH]c1=O	-15%	2%
COc1cc(NC(=O)c2[nH]cnc2C(N)=O)cc(C(=O)Nc2cccc(C(F)(F)F)c2)c1	u	10µM*
COc1ccc(C(=O)Nc2cc(C(=O)NCCc3ccccc3)ccc2Cl)cc1	-7%	-12%
CN(C(=O)c1ccc(S(=O)(=O)N2CCCC2)cc1)C1CCS(=O)(=O)C1 (configuration not stated)	i	-12%
Cc1nc2c(OCc3ccc(Cl)cc3)cccn2c1N(C)C(=O)CCC1CCCC1	-13%	-9%
CCOC(=O)c1c(NC(=O)CSc2ncccn2)sc2c1CC(C)(C)NC2(C)C	-11%	-26%
O=C(Nc1ccc2c(c1)CCC2)c1cc(=O)[nH]c2ccccc12	-16%	-3%
CCCOc1ccc(-c2c(C(=O)N/N=C/c3ccc(OCC)cc3)nnn2-c2nonc2N)cc1	-16%	-2%
COc1ccc(NC(C)=O)cc1NC(=O)CN1CCN(C2c3ccccc3-c3ccccc32)CC1	x	-18%
O=C(CSc1n[nH]c(-c2cccnc2)n1)Nc1ccccc1C(F)(F)F	0%	-10%
Cc1ccc2nc(NC(=O)CS(=O)(=O)Cc3ccccc3)sc2c1	i	-12%
CCOC(=O)c1cc([N+](=O)[O-])sc1N	i	-12%
CCCNC(=O)NCCC12CC3CC(CC(C3)C1)C2	i	-25%
N#Cc1ccc(CSc2nnc(NC(=O)CN3C(=O)C4CC=CCC4C3=O)s2)cc1 (configuration not stated)	i	1%
CN(/N=C/c1ccncc1)C1=NCCN1	-8%	-5%
O=C1CC(c2ccccc2)CN1C(=O)c1cncc(Br)c1 (configuration not stated)	-6%	9%
O=C(N[C@H]1C/C=C\C[C@@H](CC(=O)N(CCO)Cc2ccccc2)C(=O)N[C@H](Cc2c[nH]c3ccccc23)COC1=O)OCC1c2ccccc2-c2ccccc21	i	-29%
CC(C)[C@H](NC(=O)c1ccc(Cl)cc1Cl)C(=O)NNc1cccc(C(=O)O)c1	i	-16%
CCCSc1oc(-c2ccco2)nc1S(=O)(=O)c1ccccc1	-8%	-12%

Profiles, quoted from the list. Screens in order: Vaccinia mCherry | Vaccinia Venus
`Cc1ccc(SCCC(=O)Nc2ccccc2Br)cc1` is listed as -2% | -8%
`CCOC(=O)CSc1nc2ccccc2n1C(=O)OCC` is listed as x | -9%
`CC(C)c1ccc(Nc2ncccc2C#N)cc1` is listed as -15% | -7%
`CCOC(=O)c1ccc(NC2=CC(c3ccc(OCC)cc3)N(c3ccc(C(=O)OCC)cc3)C2=O)cc1` (configuration not stated) is listed as -1% | -2%
`Cc1ccc2nc(SCc3cn4cccnc4n3)[nH]c2c1` is listed as -13% | 1%

Not a hit list; overall some 0.82% were active at least once.
